Assay outcomes as filed in PubChem BioAssay.
gsp antag: qHTS for Antagonists of gsp, the Etiologic Mutation Responsible for Fibrous Dysplasia/McCune-Albright Syndrome: qHTS; gsp-mutant cells, cAMP HTRF, 30 min; control for the full effect not named in the record; AID 624288, 2012; hit rate 0.4% among 340,000; Potency, µM (titrated, usually from 76.9 µM), inactives show at the highest dose activity change, negative = inhibition, actives largely listed as inhibitors; active = falling curve of any shape with a large fitted effect; inconclusive = falling curve, mostly with a smaller effect; inactive = flat or rising curve; cell line not stated here;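 note: intracellular cAMP measured with PDE inhibitor Ro 20-1724 present during compound exposure; potency is the fitted concentration of half-maximal effect; % is set by controls: 0 for no effect and ±100 for the full control effect; nearly all actives have a fitted effect of over 65% in size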
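Cells in G418 medium, seeded 16-24 h, 37C; buffer exchange to DPBS + 1 mM CaCl2, 0.5 mM MgCl2, 0.05% BSA; cpds in DMSO + […] (300 uM stock), 30 min 37C; HTRF cAMP detection.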
D2 ag: Beta-Arrestin HTS for Positive Allosteric Modulators of the Human D2 Dopamine Receptor: Agonists; DiscoveRx PathHunter D2 beta-arrestin, luminescence, 90 min; 100% = 57 uM dopamine signal; activation, % (no concentration beside the values); D(2) dopamine receptor (Homo sapiens), P14416; hit rate 0.084% among 360,000; in the data active = activation above about 40%; inconclusive = about 15% to 40%; inactive = below about 15%; note: compound concentration not given in the record; the text of the record calls up to 30% inactive
Target sequence (P14416 whole entry, looked up): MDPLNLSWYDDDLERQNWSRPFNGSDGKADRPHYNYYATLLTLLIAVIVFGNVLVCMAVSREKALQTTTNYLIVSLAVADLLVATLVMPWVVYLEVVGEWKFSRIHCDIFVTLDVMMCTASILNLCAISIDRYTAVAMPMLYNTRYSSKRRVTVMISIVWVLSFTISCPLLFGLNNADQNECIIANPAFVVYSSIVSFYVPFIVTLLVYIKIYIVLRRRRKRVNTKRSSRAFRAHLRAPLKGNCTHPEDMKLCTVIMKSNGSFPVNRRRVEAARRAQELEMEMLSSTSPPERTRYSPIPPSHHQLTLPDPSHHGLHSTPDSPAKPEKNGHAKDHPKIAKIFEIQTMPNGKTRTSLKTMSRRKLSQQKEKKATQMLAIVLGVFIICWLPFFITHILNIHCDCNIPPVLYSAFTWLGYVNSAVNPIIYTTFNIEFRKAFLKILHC
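Agonist mode: compounds alone added to overnight-plated D2 PathHunter cells for 90 min at 37 C, with 57 uM final dopamine (EC100) defining full response. Beta-arrestin recruitment detected by chemiluminescent reagent, read after 1 h at ambient temperature.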
CtBP-E1A blk: qHTS Assay for Inhibitors of the CtBP/E1A Interaction; AlphaScreen GST-E1A/His-CtBP binding, 1536-well; stronger effect = lower value; control for the full effect not named in the record; activity change, % (no concentration beside the values); hit rate 0.49% among 340,000; AID 651724, 2012; in the data active means activity change below about -65%; inconclusive means about -30% to -65%; inactive means above about -30%; note: % is set by controls: 0 for no effect and ±100 for the full control effect; compound concentration not given in the record
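GST-E1A and His-tagged CtBP (125 nM each as 5X stock) were preincubated with pin-transferred compound for 2 h at 37 °C in the dark, then glutathione donor and nickel acceptor beads were added for 1 h before AlphaScreen reading.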
Six1-Eya2 inh: qHTS Assay for Inhibitors of the Six1/Eya2 Interaction; activity change, % (test concentration not listed); Homeobox protein SIX1 (Homo sapiens) + Protein phosphatase EYA2 (Homo sapiens), …; hit rate 0.56% among 360,000; AlphaScreen GST-Six1/His-Eya2 binding, biochemical; stronger effect = lower value; control for the full effect not named in the record; in the data active = activity change below about -65%; inconclusive = about -30% to -65%; inactive = above about -30%; note: % is set by controls: 0 for no effect and ±100 for the full control effect; compound concentration not given in the record
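AlphaScreen with GST-Six1 and His-Eya2 (5X mix: 250 nM and 500 nM), glutathione donor and nickel acceptor beads; buffer 50 mM Tris pH 8.0, 300 mM NaCl, 1 mM TCEP; 1 h at 37 C in the dark.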
D2 potentiator: Beta-Arrestin HTS for Positive Allosteric Modulators of the Human D2 Dopamine Receptor: Potentiators; D(2) dopamine receptor (Homo sapiens), P14416; DiscoveRx D2 beta-arrestin cells, luminescence, 90 min; 100% = 57 uM dopamine signal; potentiation, % (no concentration beside the values); hit rate 0.23% among 360,000; active = potentiation of 50% or more; inconclusive = 30% to 50%; inactive = 30% or less;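 note: compound concentration not given in the record; tested on top of an EC20 dose of dopamine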
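D2 cells co-treated with compound plus 50 nM dopamine (EC20) for 90 min at 37 deg C to detect potentiation. Beta-arrestin recruitment was read as enzyme-fragment luminescence after 1 h at ambient temperature. Full response was set by 57 uM dopamine.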
gsp ag: qHTS for Agonist of gsp, the Etiologic Mutation Responsible for Fibrous Dysplasia/McCune-Albright Syndrome: qHTS. hit rate 0.13% among 340,000. Potency, µM (series often up to 76.9 µM), for the others: at the highest dose activation (cAMP increase), actives largely listed as activators. gsp mutant cells, cAMP HTRF, 30 min; control for the full effect not named in the record; active = well fitted activation curve with a large enough effect; inconclusive = small, poorly fitted or top-dose-only effect, or another doubt; inactive = no such curve, though single readings can be large or run the other way; cell line not stated here;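 note: phosphodiesterase inhibitor Ro 20-1724 added with compounds to block cAMP breakdown; potency is the fitted concentration of half-maximal effect; nearly all actives have a fitted effect of over 60% in size; about a fifth of the inactives were tested at one dose only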
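Cells stably selected in G418 were plated at 2000/well, grown 16-24 hr, then given compounds in DMSO with the PDE inhibitor […] (300 uM solution added) for 30 min at 37C; cAMP was read by HTRF.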
Active calls of the source: *; u = inconclusive; x = not tested or not shown; [ ] = dose if it differs, or a comment.

The first 5 entries, ahead of the listing:
Every second line gives: gsp antag	D2 ag	CtBP-E1A blk	Six1-Eya2 inh	D2 potentiator	gsp ag
Cc1n[nH]c(=O)c2c(NC(=O)CSc3nnnn3-c3ccccc3)oc(C)c12
→ 5%	-6.5	-10	2	-25	-2%[15.4 µM]
COc1ccc2c(c1)c1nc3ccccc3nc1n2CCn1c(=O)oc2ccccc21
→ 3%	-3.0	0	21	-8	u
[O-][n+]1cccc2cccc(O)c21
→ -4%	4.6	u	-26	8	-37%[inhibitor]
Cc1ccc(CNC(=O)c2ccc3c(c2)NC(=O)CS3)cc1
→ 10%	3.9	x	-2	-5	-11%
CCC(=NCCN1CCNCC1)C1=C(O)CC(C)(C)CC1=O
→ 4%	-2.6	-11	-2	-17	-29%

The listing (from the top)
Every second line gives: gsp antag	D2 ag	CtBP-E1A blk	Six1-Eya2 inh	D2 potentiator	gsp ag
Cc1n[nH]c(=O)c2c(NC(=O)CSc3nnnn3-c3ccccc3)oc(C)c12
→ 5%	-6.5	-10	2	-25	-2%[15.4 µM]
COc1ccc2c(c1)c1nc3ccccc3nc1n2CCn1c(=O)oc2ccccc21
→ 3%	-3.0	0	21	-8	u
[O-][n+]1cccc2cccc(O)c21
→ -4%	4.6	u	-26	8	-37%[inhibitor]
Cc1ccc(CNC(=O)c2ccc3c(c2)NC(=O)CS3)cc1
→ 10%	3.9	x	-2	-5	-11%
CCC(=NCCN1CCNCC1)C1=C(O)CC(C)(C)CC1=O
→ 4%	-2.6	-11	-2	-17	-29%
CC(=O)Nc1ccc(N(C)S(C)(=O)=O)cc1
→ 12%	3.5	6	2	-1	-17%
Cc1cccc(-c2ocnc2C(=O)N2CCN(C(=O)c3cccs3)CC2)c1
→ 11%	-3.2	2	-5	-5	-1%
CCc1ccc(-c2cc(C)no2)cc1S(=O)(=O)NCc1ccccc1OC
→ -16%	6.7	x	1	-3	-3%
C/C(=N\NC(=O)c1c(C)nc2ccccn12)c1ccc(O)cc1O
→ -5%	4.1	-5	-10	-4	-45%[inhibitor]
N#Cc1nc2ccccc2n1OCc1ccccc1
→ x	0.8	-21	36	-2	-1%
CC(C)C(OC(=O)c1cccs1)C(=O)NCc1ccco1 (stereo not given)
→ 8%	-1.3	-9	0	-6	-5%
CCCCN(C)C(=O)CCC(=O)Nc1ccc2nc(N3CCN(C)CC3)cc(C)c2c1
→ 6%	-2.1	-4	4	-7	5%[15.4 µM]
Nc1[nH]n(-c2ccccc2)c(=O)c1N=Nc1ccccc1
→ -18%	-3.8	u	u	-8	0%[15.4 µM]
CC1CC(C)CN(CCCNC(=O)CN2C(=O)COc3ccc(S(=O)(=O)N4CCOCC4)cc32)C1 (stereo not given)
→ 12%	-2.5	2	5	-16	u
CC(=O)Nc1ccc(NC(=O)CN2C(=O)COc3ccc(S(=O)(=O)N4CCCCC4)cc32)cc1
→ 18%	-3.4	-2	-3	-7	32%
COc1ccc(CNC(=O)COC(=O)c2cccn2C)cc1
→ 11%	-3.0	-16	12	-26	-21%[15.4 µM]
COc1cccc(NC(=O)CN(C)C(=O)c2cccc(S(=O)(=O)Nc3ccccc3OC)c2)c1
→ 5%	-11	-6	2	-9	2%
O=C(COC(=O)CN1C(=O)C2CCCCC2C1=O)NC1CCS(=O)(=O)C1 (stereo not given)
→ 4%	-2.6	-2	7	-20	-6%
N#CCCN(Cc1cccs1)C(=O)Nc1ccccc1
→ -12%	-4.6	2	-13	-1	4%[15.4 µM]
CCCCCCCCCCCC(=O)NC(C(=O)OCC)C(O)c1cccc([N+](=O)[O-])c1 (stereo not given)
→ -11%	3.9	5	-1	-18	3%

New compounds follow:
Every second line gives: gsp antag	D2 ag	CtBP-E1A blk	Six1-Eya2 inh	D2 potentiator	gsp ag
CC1(C(=O)NCc2ccc(Cl)cc2)CCN1C(=O)c1cccc(F)c1 (stereo not given)
→ x	8.7	3	10	-5	x
CCOc1ccc(N=Cc2c(O)n(-c3cccc(C)n3)c(=O)c3ccccc23)cc1
→ -22%	-2.0	11	-2	2	-2%
CCOC(=O)c1c(-c2cccc([N+](=O)[O-])c2)csc1NC(=O)C1CCCCC1
→ 8%	6.7	-5	-11	u	0%
O=C(NCc1ccccc1)c1cc[n+](Cc2ccccc2)cc1
→ -3%	0.2	7	1	-9	28%
CCc1ccc(-c2nc(CS(=O)CC(=O)NC3CC3)c(C)o2)cc1 (stereo not given)
→ 8%	-3.7	2	2	-9	15%
CCOc1ccc(C(=O)Nc2ccc(NC(=O)c3ccccc3)cc2)cc1Br
→ 6%	-4.5	-7	-1	-4	-8%
CC(=O)c1ccc(OCC(O)CN(C)CCOc2ccc(Br)cc2)cc1 (stereo not given)
→ 17%	2.2	4	-2	-9	-13%[15.4 µM]
CC(C)(C)NC(=O)c1cccc(NC(=O)c2ccc(NC(=O)c3ccco3)cc2)c1
→ -25%	-1.2	-16	-79*	u	u
COc1ccc(OCc2csc(N)n2)cc1
→ -4%	-2.2	3	11	-1	10%[15.4 µM]
CC(C)(C)OC(=O)N1CCC(C(=O)NCC2CCCO2)CC1 (stereo not given)
→ 3%	-0.9	-15	12	-12	-3%[15.4 µM]
Cc1nn2c(NC(C)C)c3c(nc2c1-c1ccccc1)CCC3
→ -24%	-0.9	4	-10	-8	-6%[15.4 µM]
O=C(CSc1nnc2c(Cl)cc(Cl)cn12)N1CCN(c2ccc(F)cc2)CC1
→ 1%	2.5	1	-7	-8	-30%
CC(C)[n+]1ccn(C2=C([O-])c3ccccc3C(=O)/C2=N\S(=O)(=O)c2ccccc2)c1
→ 1%	7.6	-7	-4	20	-2%[15.4 µM]
O=C(CCl)Nc1ccc(-c2ccccc2)cc1
→ -24%	3.2	x	0	-16	6%
CC(C)N1CCc2c(sc(NC(=O)CCc3ccccc3)c2C(N)=O)C1
→ -7%	-0.7	4	-2	-4	-10%
CCOC(=O)N1CCN(C(=O)CN(c2ccc(Oc3ccccc3)cc2)S(C)(=O)=O)CC1
→ -11%	-2.1	3	-2	-10	-14%
CC(C)CC(c1nnnn1CCc1ccccc1)N1CCN(C(=O)c2ccco2)CC1 (stereo not given)
→ -14%	1.8	-1	3	-5	6%
O=C(C1=C[C@H](c2ccc3c(c2)OCO3)C[C@H](OCc2ccc(CO)cc2)O1)N1CCCCCCC1
→ -15%	-0.9	u	-6	-10	x
COCCCNC(=S)NCCNc1nc2cc(C)c(C)cc2cc1C#N
→ -11%	2.4	-9	-7	-7	21%
O=C(O)COCC(=O)N1CCN(c2cc(C(F)(F)F)nc3ccccc23)CC1
→ 5%	-3.7	1	0	-8	0%

(cont.)
Every second line gives: gsp antag	D2 ag	CtBP-E1A blk	Six1-Eya2 inh	D2 potentiator	gsp ag
CC(=O)c1ccc(C(=O)N2CCC(n3nccc3NC(=O)C3CC3)CC2)cc1
→ 2%	-2.2	5	-3	-5	-13%
COC1(OC)C(/C=C/c2ccc(C)cc2)C(C#N)(C#N)C1(OC)OC (stereo not given)
→ -4%	-3.6	7	7	-10	-2%
CCOC(=O)C(=CNc1ccc(-c2ccco2)c(Cl)c1)C(=O)OCC
→ u	3.5	x	19	-2	19%
Cc1cc2c(cc1C)C(c1ccccc1F)CC(=O)N2 (stereo not given)
→ -6%	-0.3	-9	8	0	-32%[inhibitor]
CC(C)CC(=O)Nc1cccc(C(=O)Nc2ccccc2C(=O)O)c1
→ 32µM*	0.9	-9	-9	5	12%
c1cc2c(cc1Nc1nc(-c3ccc4c(c3)OCO4)cs1)OCCO2
→ 15%	-2.0	-5	10	-4	12%
CCCc1c(C(=O)N/N=C/c2ccc(C)s2)nnn1-c1nonc1N
→ 6%	-0.5	2	4	-6	17%
Fc1ccc(N2CCN(C(c3cccs3)c3nnnn3CCc3ccccc3)CC2)cc1 (stereo not given)
→ 3%	-0.2	-16	-15	-2	-19%
CCOc1cccc2cc(C(=O)NCc3ccccc3)c(=N)oc12
→ 7%	-7.6	x	-1	-6	7%
Cc1ccc(Nc2nnc(SCC(=O)NCCN3C(=O)CSC3=O)s2)cc1
→ 2%	0.5	-22	-15	6	6%
O=C(NCCCCc1ccccc1)C1CC(c2cc(C(F)(F)F)cc(C(F)(F)F)c2)=NO1 (stereo not given)
→ -2%	-1.3	7	13	-12	9%
Cn1ncc(Br)c1C(=O)NCc1cccs1
→ 3%	1.7	2	5	-5	12%
COc1ccc(OC)c(NC(=O)Cn2cccc2)c1
→ 8%	-0.7	-8	-6	-13	-29%
Cc1cccc(C(=O)NCC(=O)OCc2cc(=O)n3ccsc3n2)c1
→ 5%	-3.7	1	3	-4	u
O=C(COC(=O)c1ccccc1O)Nc1ccc2ccccc2c1
→ 0%	-2.1	-1	4	-3	0%
O=C(NCc1ccc(Cl)cc1)C(=O)NCC1OCCN1C(=O)c1ccc(Cl)cc1 (stereo not given)
→ 7%	2.8	1	0	3	9%[15.4 µM]
O=C(COC(=O)CCc1ccccc1)NC(c1ccccc1)c1ccccc1
→ -8%	-1.5	-6	22	1	-3%
CC(=O)Nc1ccc(NC(=O)C(C)n2nc(C)c([N+](=O)[O-])c2C)cc1 (stereo not given)
→ 7%	-5.4	3	1	-9	-12%
CCC1CCCCN1C(=O)c1c(-c2ccccc2)noc1C (stereo not given)
→ 2%	2.5	9	-1	15	-17%
COc1ccc(C(=O)NN=C2CCCC2)c(OC)c1
→ -5%	-1.9	-14	-5	-8	7%
